Screens as filed in PubChem BioAssay.
AmpC nodet inh: Promiscuous and Specific Inhibitors of AmpC Beta-Lactamase (assay without detergent); P00811; AmpC nitrocefin hydrolysis, absorbance 480 nm, no detergent; potencies from a single point are estimates; Potency, µM (doses to about 28.7 µM), for the others: at the highest dose activity change, negative = inhibition; 71,000 tested, 1.8% active; active = falling curve, for most hits resting on a single point; inconclusive = weak or doubtful change; inactive = flat or rising curve; also: % of control where 0% means no effect; about half of the hits show no inhibition at the top dose; a quarter of the inactives give rising signals
Target sequence (P00811 whole entry, looked up): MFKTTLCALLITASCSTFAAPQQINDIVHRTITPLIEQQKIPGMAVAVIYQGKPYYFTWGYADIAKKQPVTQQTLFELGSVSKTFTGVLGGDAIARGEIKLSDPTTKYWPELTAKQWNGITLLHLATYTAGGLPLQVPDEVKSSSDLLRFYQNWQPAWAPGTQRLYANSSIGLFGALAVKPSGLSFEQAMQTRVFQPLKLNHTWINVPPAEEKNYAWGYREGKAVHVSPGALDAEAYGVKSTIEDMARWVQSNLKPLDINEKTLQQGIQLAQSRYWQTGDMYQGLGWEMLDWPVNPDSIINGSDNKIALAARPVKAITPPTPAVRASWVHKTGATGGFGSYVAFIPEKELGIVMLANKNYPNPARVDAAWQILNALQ
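AmpC, 20 mM phosphate pH 7.0; 15 min cpd preinc, RT; start with nitrocefin (800 uM stock); A480 kinetic read, 20 s intervals, 4 min. No-enzyme wells = negative control.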
Starred values were filed as active, the others as inactive; [ ] = remark or other dose. Potency is read from the fitted curve at half-maximal effect.

SMILES	AmpC nodet inh
CC(=O)NC1CC2CCCC(C1)N2CC(=O)Nc1ccccc1 (stereo unspecified)	-3%
O=C(NCc1cccnc1)c1cn(-c2ccccc2)nc1-c1cccs1	52%
O=C(NCCN1CCN(Cc2ccccc2)CC1)C1CC(=O)N(C2CCCC2)C1 (stereo unspecified)	-1%
COc1ccc(NC(=O)c2c(F)c(F)c(F)c(F)c2F)cc1Cl	-9%
COc1cccc(OCC(=O)Nc2ccccc2C(N)=O)c1	-4%
O=c1c2ccccc2nc(CSc2ncnc3nc[nH]c23)n1-c1ccccc1	-9%
COc1cc(C(=O)NCCc2nc3ccccc3n2C)cc(OC)c1OC	21%
O=C(NCc1ccc2c(c1)OCO2)c1cc2c(s1)CSC2	13µM*[single pt active]
Cn1c(=O)n(-c2ccccc2)c(=O)c2c3c(sc21)COC(C)(C)C3	19%
COc1ccc(S(=O)(=O)N2CCC(C(=O)Nc3nnc(CCN4CCCCC4)s3)CC2)cc1	74%
C[C@H](CCC(=O)O)[C@H]1CC[C@H]2[C@@H]3[C@H](O)C[C@@H]4C[C@H](O)CC[C@]4(C)[C@H]3C[C@H](O)[C@]12C	59%
COCCNS(=O)(=O)c1cccc2cccnc12	5%
CCN(CC)S(=O)(=O)C1CCS(=O)(=O)C1 (stereo unspecified)	4%
Cn1c(C(C#N)/C(=N\S(=O)(=O)c2cccs2)c2ccccc2)nc2ccccc21 (stereo unspecified)	-15%
CCC(c1nnnn1C1CCCCC1)N1CCN(C2CCCC2)CC1 (stereo unspecified)	13%
Cc1cnc(CNc2cc(-c3ccc(N(C)C)cc3)ncn2)cn1	30%
Cc1cc(C)n2c(SCC(=O)Nc3cc(C)on3)nnc2n1	-4%
CC(C)NS(=O)(=O)c1ccc(OCC(=O)Nc2ccc3c(c2)OCO3)c(Cl)c1	10%
CC(C)[C@@H](CC(=O)N[C@@H]1CCCC[C@H]1C(=O)N[C@H](CC(=O)N[C@@H](CCC(=O)O)CC(=O)O)Cc1c[nH]c2ccccc12)NC(=O)C[C@H](Cc1ccccc1)NC(=O)[C@@H]1CNCC[C@H]1N	106%
Nc1nc(COc2ccc3ccccc3c2)cs1	-7%
O=C(NC(Cc1ccccc1)C(=O)N1CCN(c2ccccn2)CC1)c1ccco1 (stereo unspecified)	30%
CC(C)C[C@@H](CC(=O)N[C@@H](CCC(=O)O)CC(=O)O)NC(=O)[C@@H]1CCCC[C@H]1NC(=O)C[C@H](CCCN)NC(=O)C[C@H](Cc1c[nH]c2ccccc12)NC(=O)[C@@H]1CCCC[C@H]1N	155%
O=C1N=c2ccccc2=C1c1sc(=S)n(CC2CCCO2)c1O (stereo unspecified)	-12%
COc1cc(OC)c(NC(=O)CS(=O)(=O)Cc2nc(-c3ccc(C)cc3)oc2C)cc1Cl	17%
CCOc1ccc(/C(O)=C2/C(=O)C(=O)N(CCCn3ccnc3)C2c2cccs2)cc1Cl (stereo unspecified)	13%
COc1ccc(OC)c(NC(=O)CN2CCN(C(=O)c3ccco3)CC2)c1	42%
C=CCn1c(SCn2nnc3ccccc3c2=O)nnc1-c1ccc(Cl)cc1	27%
COc1ccc(OC)c(NC(=O)c2c(NC(=O)CNCc3ccco3)sc3c2CCC3)c1	-3%
COC(=O)C1=C(CSc2nncn2C)NC(=O)NC1c1cc(C)ccc1C (stereo unspecified)	4%
CCC(C)OC(=O)c1[nH]c2c(c1C)C(=O)CC(c1ccc(N(C)C)cc1)C2 (stereo unspecified)	16%
NC(=O)c1ccc(-n2nnnc2SCc2ccccc2)cc1	-6%
Cn1cc(-c2nc3cnc(Oc4ccccc4)nc3n(C)c2=O)c2ccccc21	18%
Cc1cc2oc(C(=O)N(Cc3ccco3)C3CCS(=O)(=O)C3)cc(=O)c2cc1Cl (stereo unspecified)	80%
O=S(=O)(NCCc1cn2ccccc2n1)c1cccs1	-15%
COc1cccc(N2CCN(C(=O)c3ccc(N4C(=O)NC5CC4(C)Oc4ccccc45)cc3)CC2)c1 (stereo unspecified)	78%
CC(O)CNc1nc2c(c(=O)n(C)c(=O)n2C)n1C/C=C/c1ccccc1 (stereo unspecified)	40%
CCOC(=O)NCc1ccc(S(=O)(=O)Nc2ccccc2C)cc1	-13%
Cc1cc(C(=O)OCC(=O)NC2CCS(=O)(=O)C2)c(C)n1-c1ccccc1 (stereo unspecified)	38%
CN(C)c1nc(N)nc(-c2nc3ccccc3s2)n1	5%
CC(=O)Nc1cccc(NC(=O)CSc2nnnn2C(C)C)c1	1%
O=C(c1cc2ccccn2n1)N1CCC2(CC1)OCCO2	8%
Cn1c(=O)[nH]c(=O)c2c1nc(CN1CCN(c3ccccc3F)CC1)n2CC(N)=O	-6%
COc1ccc(C(=O)N2CCC3(CC2)CN(c2ccncc2)C3)cc1	8%
COc1ccc(-c2nc(N)ncc2-c2csc(C)n2)c(O)c1	16%
O=S1(=O)CC(O)C(NCc2ccco2)C1 (stereo unspecified)	0%
Cc1cc(Nc2c(C)cccc2C)n2nc(C)nc2n1	4%
CCCCCCN(C(=O)CCCCCN1C(=O)NC(c2ccc(C(C)(C)C)cc2)C(C(=O)OCc2ccccc2)=C1C)C(C(=O)NCCCC)c1ccc(OCC(=O)OC)c(C(=O)OC)c1 (stereo unspecified)	46%
Brc1cccc(C2CC(c3ccccc3)n3nnnc3N2)c1 (stereo unspecified)	20%
COC(=O)N1CCC2(CC1)CN(c1ccncc1)C2	1%
NC(=O)c1sc2nc(N3CCCCC3)c3c(c2c1N)CCCC3	33%

The list goes on.
SMILES	AmpC nodet inh
O=C(C1CCN(c2nnnn2-c2ccccc2)CC1)N1CCN(c2ccccc2)CC1	111%
CCCCC(=O)Nc1ccc(NC(=O)c2cccnc2)cn1	-20%
CCOc1cc(CNc2ccccc2SC)ccc1O	-5%
Cc1cc(C)cc(NC(=O)C2CCN(c3nccs3)CC2)c1	14%
Cc1ccc(C)c(N2CCN(CC(=O)Nc3ccc4[nH]c(=O)[nH]c4c3)CC2)c1	18%
CN(C)S(=O)(=O)c1cc(S(=O)(=O)N(C)C)c(Cl)cc1N	3%
Cc1cc2cc(CCNC(=O)c3ccc(Br)o3)c(=O)[nH]c2cc1C	7%
O=C(CSc1ncn(-c2ccccc2)n1)Nc1nc2ccccc2s1	-10%
O=C(c1cc(C(F)(F)F)cc(C(F)(F)F)c1)N1CCC[C@@]2(CCN(c3ccccn3)C2)C1	140%
CN1Cc2c(N)cccc2[C@H](c2ccccc2)C1	-9%[12.8 µM]
c1ccc(-n2nnnc2-n2ccnc2)cc1	-2%
COC(=O)c1cc2ccsc2n1CC(=O)N1CCCc2ccccc21	14%
CCOc1cc(CNC(=O)CN2C(=O)c3ccccc3S2(=O)=O)ccc1OC	6%
CC(O)Cc1nsc(NC(=O)c2ccc(Br)o2)n1 (stereo unspecified)	-11%
COc1cccc2cc(C(C)N(CCCN3CCOCC3)C(=O)Nc3ccc(Cl)cc3)oc12 (stereo unspecified)	119%
O=C(CN(Cc1ccco1)C(=O)CNS(=O)(=O)c1ccccc1)NC1CCCCC1	14%
Cc1ccc(-n2nnc3c(=O)n(CC(=O)N4CCCC4)cnc32)cc1	1%
CC(=O)NCC(=O)OCC(=O)c1ccc(C)cc1	-4%
COc1ccc(S(=O)(=O)NCC(=O)N(CC(=O)NCC2CCCO2)c2c(C)cccc2C)cc1 (stereo unspecified)	98%
CCCc1oc2c(c(=O)c1CC)C(=O)CC(C)(C)C2	-6%
FC(F)(F)C1CC(c2cccs2)Nc2ncnn21 (stereo unspecified)	7%
COCCOC(=O)C(C#N)c1nc2ccccc2nc1N1CCCC1 (stereo unspecified)	84%
O=C(Cn1cccc1C(=O)c1ccccc1)NCc1ccco1	-4%
CCC(C(=O)NC1CCCC1)N(Cc1ccco1)C(=O)Cn1nnc(-c2ccc(C)cc2)n1 (stereo unspecified)	97%
Cc1ccccc1Cn1cc(NC(=O)c2cc(-c3cccs3)on2)cn1	-24%
CS(=O)(=O)N(CC(N)=O)c1ccc2c(c1)OCO2	1%
Cc1ccc(Cl)cc1N1CCN(S(=O)(=O)c2ccc3c(c2)oc(=O)n3C)CC1	36%
CCOC(=O)CCCNC(=O)CCNC(=O)c1ccc(OCC)cc1	8%
CC(=O)N(Cc1cc2ccc(C)c(C)c2n2nnnc12)C1CCCC1	71%
O=C(C1COc2ccccc2O1)N1CCN(Cc2ccc3c(c2)OCO3)CC1 (stereo unspecified)	82%
O=C(O)C1CC(=O)N(c2ccc(F)cc2)C1 (stereo unspecified)	1%
COc1ccc2nc(NC(=O)C3CCCN3S(=O)(=O)c3ccc(C)cc3)sc2c1 (stereo unspecified)	8%
N#Cc1c(N)nc2c(c1-c1cccnc1)CCCCC2	-2%
O=C1CC(Cc2ccccc2)C(=O)N1Cc1ccco1 (stereo unspecified)	46%
CCCOc1ccc2c3c(c(=O)oc2c1OCCC)CCC3	40%
Cc1cccc(NC2=NCCCS2)c1C	-11%
COc1ccc(C(C(=O)NC2CCCCC2)N2CCC3(CC2)OCCO3)cc1 (stereo unspecified)	52%
COC(=O)c1sc(S(=O)(=O)N2CCC(C)CC2)c(C(=O)OC)c1C	43%
COc1ccc(CCNC(=O)CSc2nnc(Cc3csc(N)n3)n2C)cc1OC	6%
O=C(O)c1cccc(N2C(=O)c3cccnc3C2=O)c1	-7%
CN(C)c1nc(-c2cccc(NS(C)(=O)=O)c2)nc2ccccc12	42%
COc1ccc(N2C(=O)CC(Sc3nc(C)c4c(n3)CCCC4)C2=O)cc1 (stereo unspecified)	47%
COc1ccc(CCNC2CC(=O)N(CCc3ccc(OC)c(OC)c3)C2=O)cc1OC (stereo unspecified)	85%
O=C(O)Cn1nc2ccccc2n1	-2%
COC(=O)C1=C(C)NC(C)=C(C(=O)OC)C1c1ccccn1	6%
O=S(=O)(c1ccc(S(=O)(=O)N(Cc2cccs2)CC2CCCO2)cc1)N1CCCCC1 (stereo unspecified)	29%
Cc1cc(C)n(CCCNC(=O)c2ccc3c(c2)NC(=O)CS3)n1	4%
CCOC(=O)N1CCC(NC(=O)CCc2c(C)nc3ncnn3c2C)CC1	-1%
O=C(Cc1cccs1)N1CCN(c2nc(-c3ccc(Cl)cc3)cs2)CC1	11%
Cc1cccc(C)c1NC(=O)CCCSc1nnc(-c2ccco2)o1	16%

Arranged by heavy-atom count (ascending): part of the list above.
SMILES	AmpC nodet inh
O=C(O)Cn1nc2ccccc2n1	-2%
Cc1cccc(NC2=NCCCS2)c1C	-11%
COCCNS(=O)(=O)c1cccc2cccnc12	5%
CCCc1oc2c(c(=O)c1CC)C(=O)CC(C)(C)C2	-6%
O=S(=O)(NCCc1cn2ccccc2n1)c1cccs1	-15%
O=C(c1cc2ccccn2n1)N1CCC2(CC1)OCCO2	8%
COc1ccc(-c2nc(N)ncc2-c2csc(C)n2)c(O)c1	16%
O=C(Cn1cccc1C(=O)c1ccccc1)NCc1ccco1	-4%
COC(=O)c1sc(S(=O)(=O)N2CCC(C)CC2)c(C(=O)OC)c1C	43%
Cc1cccc(C)c1NC(=O)CCCSc1nnc(-c2ccco2)o1	16%
Cc1ccccc1Cn1cc(NC(=O)c2cc(-c3cccs3)on2)cn1	-24%
CCC(C)OC(=O)c1[nH]c2c(c1C)C(=O)CC(c1ccc(N(C)C)cc1)C2 (stereo unspecified)	16%
C=CCn1c(SCn2nnc3ccccc3c2=O)nnc1-c1ccc(Cl)cc1	27%
Cn1cc(-c2nc3cnc(Oc4ccccc4)nc3n(C)c2=O)c2ccccc21	18%
Cn1c(=O)[nH]c(=O)c2c1nc(CN1CCN(c3ccccc3F)CC1)n2CC(N)=O	-6%
COc1cc(OC)c(NC(=O)CS(=O)(=O)Cc2nc(-c3ccc(C)cc3)oc2C)cc1Cl	17%
COc1ccc(S(=O)(=O)N2CCC(C(=O)Nc3nnc(CCN4CCCCC4)s3)CC2)cc1	74%
COc1ccc(S(=O)(=O)NCC(=O)N(CC(=O)NCC2CCCO2)c2c(C)cccc2C)cc1 (stereo unspecified)	98%
CC(C)[C@@H](CC(=O)N[C@@H]1CCCC[C@H]1C(=O)N[C@H](CC(=O)N[C@@H](CCC(=O)O)CC(=O)O)Cc1c[nH]c2ccccc12)NC(=O)C[C@H](Cc1ccccc1)NC(=O)[C@@H]1CNCC[C@H]1N	106%

(continued)
SMILES	AmpC nodet inh
COC(=O)C1CCN(c2cc(=O)n(-c3ccccc3Cl)c(=O)[nH]2)CC1	9%
CCC1(C(=O)O)NC(c2cc(OC)ccc2O)C2C(=O)N(Cc3ccccc3)C(=O)C21 (stereo unspecified)	8%
COc1ccc(N2C(=O)CC(n3c(CCCCO)nc4ccccc43)C2=O)cc1 (stereo unspecified)	45%
C=CCn1c(COc2cccc3cccnc23)nnc1SCC(=O)O	-4%
Cc1cc(C)nc(Nc2nc3ccccc3[nH]2)n1	13%
CCOC(=O)C1=C(C)NC(=O)NC1c1ccc(Br)s1 (stereo unspecified)	6%
COc1ccccc1Nc1nc(NCCO)c2ccccc2n1	-7%
CCCn1c(=O)c2ccccc2n2c(SCCOc3ccccc3F)nnc12	82%
CCOC(=O)c1ccc(NS(=O)(=O)c2cc(-c3nnnn3C(C)C)ccc2OC)cc1	21%
CCOc1ccc(-c2nnn(CC(=O)N3CCN(c4ccc(OC)cc4)CC3)n2)cc1OCC	113%
Cc1cc(C)cc(OCC(O)CN2C(=O)NC(C)(C)C2=O)c1 (stereo unspecified)	31%
O=C1CC(N2CCN(C/C=C/c3ccccc3)CC2)C(=O)N1CCc1ccccc1 (stereo unspecified)	122%
c1ccc(Nc2nc3ccccc3n3cnnc23)cc1	40%
Cc1cc(NC(=O)CSc2ncnc3ccccc23)no1	3%
Cc1ccccc1CS(=O)(=O)Cc1ccc(C(=O)NCCCN2CCCC2=O)o1	16%
CSc1nnnn1-c1cccc(O)c1	12%
c1ccc(-n2cnc3cc(NCc4ccncc4)ccc32)cc1	28%
CC(=O)N1CCCc2cc(S(=O)(=O)N(CC(C)C)CC(C)C)ccc21	106%
CCOC(=O)N1CCN(C2CC(=O)N(c3ccccc3)C2=O)CC1 (stereo unspecified)	1%

A portion of the library; count on the stated rates, not on these rows.
